Vaccinia Venus: vaccinia inhibition (Venus reporter). Vaccinia virus Venus reporter expression, fluorescence. Potency, µM (titrated, usually from 36.5 µM), for the others: at the highest dose activity change, negative = inhibition, actives largely listed as inhibitors. hit rate 0.46% among 330,000; active means well fitted inhibition curve with a large enough effect; inconclusive means small, poorly fitted or top-dose-only effect; inactive means no such curve, though single readings can be large or run the other way; tested in A549 cells; further: nearly all actives have a fitted effect of over 30% in size; inactives centre near -10
Vaccinia mCherry: inhibitors of vaccinia virus infection (mCherry reporter signal) | Vaccinia virus mCherry reporter infection, fluorescence; about a quarter of the inactives have no number | Potency, µM (highest dose often 36.5 µM), for inactives: at the highest dose activity change, negative = inhibition, hits mostly inhibitors | hit rate 0.63% among 310,000 | AID 720579; active = well fitted inhibition curve with a large enough effect; inconclusive = small, poorly fitted or top-dose-only effect; inactive = no such curve, though single readings can be large or run the other way; tested in A549 cells; further: nearly all actives have a fitted effect of over 35% in size; inactives centre near -10
* marks the source's active call; other numbers are inactive results; i = inactive; u = inconclusive; x = not tested or not shown; & = joins results of further samples; [ ] = dose if it differs, or a comment. On the % scale 0 is the no-effect control and ±100 the full control effect; potency means the concentration at half of the fitted maximal effect.

The line under a structure holds: Vaccinia Venus, Vaccinia mCherry
> O=c1nc(N2CCOCC2)nc(N/N=C/c2ccc3c(c2)OCO3)[nH]1
  -2%, -6%
> COC(C[C@@H]1O[C@@H]1[C@H](O)COCc1ccccc1)OC
  0%, -21%
> O=C(NCc1ccc(F)cc1)c1cc(C2CCCCN2C(=O)c2ccccn2)on1 (configuration not stated)
  -8%, -2%
> COc1ccc(-c2[nH]ncc2CN2CCC(OCc3ccccc3)CC2)c(F)c1
  -12%, u
> NS(=O)(=O)c1ccc(CCNS(=O)(=O)Cc2ccc(Cl)cc2)cc1
  -11%, i
> O=C1NC2(CCSC2)C(=O)N1CC(=O)N(Cc1ccccc1)C1CCS(=O)(=O)C1 (configuration not stated)
  -7%, i
> COc1ccc(C(C(=O)NCc2ccccc2)N(C(=O)c2snc(C(N)=O)c2N)C2CCCC2)cc1 (configuration not stated)
  -5%, -8%
> O=C(COC(=O)COc1ccccc1[N+](=O)[O-])Nc1ccccc1Br
  -6%, -4%
> Cc1ccc(C(=O)Nc2ncccc2C)cc1S(=O)(=O)N1CCCCC1
  -9%, -15%
> O=C(Nc1ccc(OCCO)cc1)c1csc([C@@H]2O[C@H](CO)[C@H](O)[C@H](O)[C@H]2O)n1
  8%, 22%
> CCn1ccnc1CN(C)C(=O)C1CCC(=O)N(Cc2cccc(F)c2)C1 (configuration not stated)
  -3%[7.34 µM], -12%[7.34 µM]
> O=C(CCN1CCc2ccccc2C(O)(c2ccccc2)C1)c1ccc2c(c1)OCCO2 (configuration not stated)
  -28%, u
> O=Cc1cnc(N2CCN(c3ccccc3)CC2)s1
  -8%, -10%
> CC(C)C[C@@H](CN)NC(=O)c1nc[nH]c1C(=O)N[C@@H](C)C(=O)CNC[C@H](C)NC(=O)c1nc[nH]c1C(=O)N[C@@H](Cc1ccccc1)C(=O)O
  -1%, i
> CCCCCCCN1C2=NCCCN2c2ccccc21
  -15%, -11%
> CCOC(=O)c1cnc(Nc2nc3ccccc3o2)nc1CN1CCN(C)CC1
  u, u
> CCC/C=N/NC(=O)c1ccc(F)cc1
  -13%, -5%
> O=C(CN1C(=O)C2CC=CCC2C1=O)OCCN1C(=O)c2ccccc2C1=O (configuration not stated)
  -2%, -4%
> COc1ccc(-c2c(C)n([O-])c3c([n+]2=O)CCCCC3)cc1
  -9%, -1%
> Cc1ccc(NC2=C(Cl)C(=O)OC2OC(=O)c2ccccc2C)cc1 (configuration not stated)
  -18%, u
> CC(=O)Nc1cccc(NC(=O)CSc2nc(=O)n(CCCN3CCOCC3)c3c2CCC3)c1
  -12%, i
> C=C(C)C(=O)N1CC2(CC(c3cccc(NC(=O)/C=C\C)c3)=NO2)C[C@H]1C(N)=O (some centres not stated)
  -3%, i
> CCCCNC(=O)COC(=O)c1cc(Br)ccc1Cl
  -10%, i
> CCOc1cccc(CC(=O)Nc2ccc3nc(N4CCCCC4)cc(C)c3c2)c1OCC
  -15%, -19%
> C/C(=N\NC(=O)c1c(Br)c(C)nn1C)c1cccc(NC(=O)c2ccccc2F)c1
  -8%, -20%
> O=C1CCCCC1Sc1nnc(Nc2ccccc2)s1 (configuration not stated)
  -13%, -14%
> CCOC(=O)CCP(=O)(O)C(O)c1ccccc1 (configuration not stated)
  3%, x
> Cn1c(=O)c(C(=O)CN2CCCCCC2)c(N)n(Cc2ccccc2)c1=O
  -8%, -11%
> COc1ccc(-n2c(=O)c3c(c4cc(OC)ccc4n3C)n(CCC(C)C)c2=O)cc1
  -9%, -15%
> COc1ccc(CCN2C(=O)CCC2(C)c2nnnn2-c2ccc3c(c2)OCCO3)cc1OC (configuration not stated)
  0%, 41%[activator]
> O=C1[C@H](Cc2ccccc2)NC/C=C\C[C@@H](c2ccco2)N1Cc1ccccc1
  -14%, -5%
> O=c1nc2onnc2c(C=NO)[nH]1
  2%, -12%
> COc1ccccc1NC(=S)NCc1cccs1
  -4%, -19%
> O=S(=O)(Nc1ccc(-c2ccc3nncn3n2)cc1)c1ccccc1F
  -13%, -16%
> CCOC(=O)c1cc2c(=O)n3ccccc3nc2n(Cc2ccc(Cl)cc2)c1=N
  -7%, -12%
> Cc1cc(C)c(C)c(S(=O)(=O)N2CCC(C(=O)OCC(=O)NC3CCS(=O)(=O)C3)CC2)c1C (configuration not stated)
  -15%, i
> CCc1nnc(NS(=O)(=O)c2ccc(NC(=O)c3ccc([N+](=O)[O-])s3)cc2)s1
  -12%, -17%
> Cc1cc(C)n(CC(C)O)c(=O)c1C#N (configuration not stated)
  -3%, -2%
> c1nc(N2CCC3(CC2)OCCO3)c2[nH]cnc2n1
  -16%, -17%
> CC(C)[C@@H](C(=O)N[C@@H](Cc1ccccc1)C(=O)O)N1C(=O)N2CCc3c([nH]c4ccccc34)[C@@]2(C)C1=O
  2%, 0%

Whole records, looked up by structure. Order of values: Vaccinia Venus, Vaccinia mCherry
`COc1ccc(-n2c(=O)c3c(c4cc(OC)ccc4n3C)n(CCC(C)C)c2=O)cc1` is listed with -9%, -15%
`COc1ccc(-c2c(C)n([O-])c3c([n+]2=O)CCCCC3)cc1` is listed with -9%, -1%
`Cc1ccc(C(=O)Nc2ncccc2C)cc1S(=O)(=O)N1CCCCC1` is listed with -9%, -15%
`COc1ccc(C(C(=O)NCc2ccccc2)N(C(=O)c2snc(C(N)=O)c2N)C2CCCC2)cc1` (configuration not stated) is listed with -5%, -8%
`Cc1cc(C)n(CC(C)O)c(=O)c1C#N` (configuration not stated) is listed with -3%, -2%

Further entries
The line under a structure holds: Vaccinia Venus, Vaccinia mCherry
> CCc1ccc(-n2c(Cc3ccccc3)nnc2SCc2nc(-c3cccs3)no2)cc1
  -7%, -7%
> O=C(COC(=O)c1cc(-c2cccs2)nc2ccccc12)NC1CCS(=O)(=O)C1 (configuration not stated)
  -15%, i
> O=C(CCNS(=O)(=O)c1ccc2c(c1)CCN2C(=O)C1CC1)N1CCN(c2ccc(F)cc2)CC1
  -13%, -18%
> COc1cc(CN2CCNCC2)cc(OC)c1OC
  5%, i
> CC1(C)O[C@H]2[C@@H](O1)[C@@H](C(=O)Nc1ccccc1O)O[C@@H]1OC(C)(C)O[C@@H]12
  -12%, -1%
> CC(C)(C)[C@]1(O)C[C@@H]2OC(=O)C[C@@]23C(=O)O[C@@H]2OC(=O)[C@@H](O)C213 (some centres not stated)
  -2%, i
> O=C(NCCc1ccccc1Cl)c1ccc2c(=O)n(-c3ccccc3)c(=O)[nH]c2c1
  -7%, -16%
> Cc1ccc(C)c(NS(=O)(=O)c2ccc(OCC(=O)NCc3ccccn3)cc2)c1
  -13%, -12%
> CC(=O)NCc1ccc(S(=O)(=O)N/N=C/c2ccccc2)cc1
  -3%, -7%
> O=C(CNCc1ccccc1)NCCCN1CCCC1=O
  -3%, 5%
> CCC(=O)N1CCc2cc(S(=O)(=O)CCC(=O)Nc3ccc(Cl)c(C(F)(F)F)c3)ccc21
  7.9µM*, 5µM*
> O=C(Cc1ccc(Br)cc1)OCC(=O)N1CCCCCC1
  -7%, -6%
> CCOc1ccc(NC(=O)Cn2ccn3nc(-c4ccc(OC)c(OC)c4)cc3c2=O)cc1
  0%, -7%
> O=C(CSc1nc2ccccc2c(=O)n1-c1ccc(F)cc1)NC1CCS(=O)(=O)C1 (configuration not stated)
  -9%, -13%
> COc1cc(CO)cc(-c2cc(CO)cc(OC)c2OC)c1OC
  -5%, -13%
> NC(=NCCc1c[nH]c2ccccc12)NC(=O)c1ccc(Cl)cc1
  u, u
> CCc1ccc(NC(=O)N2CCN(c3ccc(F)cc3)CC2)cc1
  -15%, -3%
> COc1cccc(NC(=O)CN(C)S(=O)(=O)c2ccc3c(c2)n(C)c(=O)c(=O)n3C)c1
  -1%, i
> COc1cccc(CC(=O)Nc2ncc(C)s2)c1
  -6%, 52%[activator]
> CC(CN1CCCCC1)c1ccccc1 (configuration not stated)
  -3%, -1%

Part of the list above in order of number of heavy atoms, lowest first:
The line under a structure holds: Vaccinia Venus, Vaccinia mCherry
> COc1ccccc1NC(=S)NCc1cccs1
  -4%, -19%
> CCCCCCCN1C2=NCCCN2c2ccccc21
  -15%, -11%
> CCn1ccnc1CN(C)C(=O)C1CCC(=O)N(Cc2cccc(F)c2)C1 (configuration not stated)
  -3%[7.34 µM], -12%[7.34 µM]
> CCOC(=O)c1cnc(Nc2nc3ccccc3o2)nc1CN1CCN(C)CC1
  u, u
> Cc1ccc(C)c(NS(=O)(=O)c2ccc(OCC(=O)NCc3ccccn3)cc2)c1
  -13%, -12%
> CC(C)C[C@@H](CN)NC(=O)c1nc[nH]c1C(=O)N[C@@H](C)C(=O)CNC[C@H](C)NC(=O)c1nc[nH]c1C(=O)N[C@@H](Cc1ccccc1)C(=O)O
  -1%, i

Following part
The line under a structure holds: Vaccinia Venus, Vaccinia mCherry
> N#Cc1cc2c(OCC(O)CN3CCN(C(c4ccccc4)c4ccccc4)CC3)cccc2[nH]1 (configuration not stated)
  -8%&-27%, -10%
> COC(=O)c1ccc(C)c(NC(=S)NCc2ccc(Cl)cc2)c1
  -12%, -10%
> CCCCn1c(N)c(N(Cc2ccccc2OC)C(=O)CCSC)c(=O)[nH]c1=O
  -6%, -7%
> CCCc1cc(=O)[nH]c(SCCOc2ccc(Cl)cc2)n1
  -8%, i
> Cn1c(=O)c2c(-c3ccccc3)n(-c3ccccc3F)cc2n(C)c1=O
  -11%, 24%
> Cc1cc(C)n2nc(C(=O)Nc3cccc(S(=O)(=O)N4CCOCC4)c3)nc2n1
  -9%, -19%
> Cn1ccnc1C(O)(c1nnc(-c2ccccc2)o1)C(F)(F)F (configuration not stated)
  -7%, -12%
> CCCCCCCCCc1conc1C(=O)CP(=O)(OC)OC
  -5%, -3%
> C/C(=C\C(=S)Nc1ccccc1)Nc1cccc2ccccc12
  -3%, -17%
> COc1ccc(CCCNC(=O)C2(C)Cc3c(-c4ccc(C(N)=O)cc4)ccnc3O2)cc1 (configuration not stated)
  6%, i
> CCOc1ccc(CCNC(=O)c2cccc3c2C(=O)N(CCOC)C3)cc1OCC
  -7%, -12%
> COc1cccc(-n2nnnc2SCC(=O)NCCc2ccc(OC)c(OC)c2)c1
  -15%, -9%
> CC(=O)c1cccc(N=Cc2c(O)c3ccccc3oc2=O)c1
  -13%, -12%
> CCOc1ccc(-c2nc(S(=O)(=O)c3ccccc3)c(NCc3cccnc3)o2)cc1
  -7%, x
> CC1CC1C(=O)OCC(=O)Nc1cccc(Br)c1 (configuration not stated)
  6%, i
> CN(C)c1ccc2c(=O)cc[nH]c2c1
  15%, 7%
> Cc1cccc(C)c1NC(=O)CN(C)C(=O)c1cccc(-n2cccc2)c1
  -16%, -24%
> CC(C)C[C@H]1COCCS(=O)(=O)N1Cc1cccc(F)c1
  6%, i
> CCOC(=O)C1=C(C)Nc2nc(SCC(=O)OC)nn2C1c1cc(F)cc(F)c1 (configuration not stated)
  -20%, -9%
> Cc1ccc(C(NC(N)=O)c2ccccc2C)cc1 (configuration not stated)
  -18%, -36%
> C(=C\c1nc(-c2cccnc2)no1)/c1ccccc1
  -7%, 0%
> CCOCc1[nH]c(=S)[nH]c(=O)c1Cc1ccc(OCC)cc1
  -25%, -18%
> CSc1ncc(Cl)c(C(=O)Nc2c(C(=O)Nc3cccc(Cl)c3)oc3ccccc23)n1
  0%, -4%
> O=C(NCc1cccs1)C1CC1
  -2%, -10%
> Cc1ccc(C)c(NC(=S)Nc2cccnc2)c1
  -10%, -5%
> CCc1ccc(NC(=O)CCS(=O)(=O)c2ccc3c(c2)n(C)c(=O)c(=O)n3C)cc1
  -14%, -16%
> O=C(NCC(F)(F)F)C1C(=O)Nc2ccccc2C(=O)N1Cc1ccccc1 (configuration not stated)
  -1%, -20%
> C/C(=C\c1ccco1)CN1CCOc2ccc(CN3CCC(Oc4cccnc4)CC3)cc2C1
  5%, -1%
> CC(C)C(=O)NCCc1nc(-c2ccccc2)no1
  3%, -13%

Hits appear at their usual frequency; about 0.88% have a hit in one of these screens.
